KCNQ2 enhance: KCNQ2 (rat) channel potentiation. O88943. actives 0.54% (n = 310,000). CHO-K1 KCNQ2, FluxOR thallium flux fluorescence; active compounds read high. B-score at 10 µM;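 active means fluorescence ratio B-score at least 3 SD of library B-scores, with initial fluorescence B-score within 3 SD, cut at about 5.3 in these data; same plate scores as AID 2156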;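 further: B-score of peak minus minimum over baseline fluorescence ratio after K+ and Tl+ stimulus; positive B-score means potentiation of KCNQ2 with more thallium influx and brighter signal; only the inactives scoring about 0 or higher are listed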
Target sequence (O88943 whole entry, looked up): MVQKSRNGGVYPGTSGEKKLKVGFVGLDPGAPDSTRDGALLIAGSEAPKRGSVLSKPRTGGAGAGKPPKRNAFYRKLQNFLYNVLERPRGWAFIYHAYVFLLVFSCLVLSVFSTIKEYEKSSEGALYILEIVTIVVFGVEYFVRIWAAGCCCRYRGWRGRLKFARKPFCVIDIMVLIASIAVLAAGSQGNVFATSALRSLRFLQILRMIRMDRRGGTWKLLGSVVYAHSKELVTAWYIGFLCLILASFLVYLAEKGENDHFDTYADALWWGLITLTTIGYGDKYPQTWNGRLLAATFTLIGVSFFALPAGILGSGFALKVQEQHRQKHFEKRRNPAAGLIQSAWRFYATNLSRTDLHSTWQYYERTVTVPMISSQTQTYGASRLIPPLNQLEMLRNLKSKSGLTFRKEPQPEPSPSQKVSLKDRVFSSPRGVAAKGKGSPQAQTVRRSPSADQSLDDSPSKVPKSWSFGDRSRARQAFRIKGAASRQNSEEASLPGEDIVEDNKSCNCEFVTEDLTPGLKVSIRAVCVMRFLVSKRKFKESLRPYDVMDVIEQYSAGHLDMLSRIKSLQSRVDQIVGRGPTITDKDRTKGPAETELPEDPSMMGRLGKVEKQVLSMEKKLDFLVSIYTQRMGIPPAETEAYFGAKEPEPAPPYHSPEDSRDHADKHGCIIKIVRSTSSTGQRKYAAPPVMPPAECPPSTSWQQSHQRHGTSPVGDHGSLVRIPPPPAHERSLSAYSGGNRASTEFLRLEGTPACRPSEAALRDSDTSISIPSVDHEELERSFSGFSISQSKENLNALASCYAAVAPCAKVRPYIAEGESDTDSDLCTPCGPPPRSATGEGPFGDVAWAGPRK
KCNQ2 enhance baseline: also measured in KCNQ2 enhance; calls as there; B-score; compound at 10 µM; measured here: initial fluorescence intensity artifact check;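 brightness before thallium and not channel activity; 0 = typical well and far values either way flag optical interference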
Numbers without * were called inactive. An excerpt (hit frequency here may not be typical).

smiles	KCNQ2 enhance	KCNQ2 enhance baseline
CCCCNC(=O)C(=O)NCc1ccncc1	0.43	-0.1
COc1ccc(CNC(=O)N2CCN(c3cccc(Cl)c3)CC2)cc1OC	0.82	-0.24
CCn1ccnc1CNC(=O)C1CCC(=O)N(Cc2ccccc2F)C1 (stereo not drawn)	0.22	-0.72
NS(=O)(=O)c1ccc(CCNC(=O)CNCCc2ccc(C(F)(F)F)cc2)cc1	0.75	0.19
O=C(NCCS(=O)(=O)NC1CCCC1)c1ccc(F)cc1	0.16	0.17
CC(C)c1ccc(NC(=O)C[n+]2ccn(C3=C([O-])c4ccccc4C3=O)c2)cc1	0.05	-0.26
COc1ccc(N2CC(O)=C(c3nc(-c4ccc(F)cc4)cs3)C2=N)cc1Cl	0.21	-0.09
CC(C)c1nc(SCC(=O)Nc2nccs2)c2ccccc2n1	0.11	-0.01
Cc1ccc(SCCNC(=O)/C=C/c2ccc(Cl)cc2)cc1	1.15	-0.18
O=C(NC(Cc1ccccc1)c1nc2ccccc2[nH]1)c1cccc([N+](=O)[O-])c1 (stereo not drawn)	0.84	-0.37
COc1ccc(Cl)cc1-c1nc(SCC(N)=O)n[nH]1	0.87	0.84
O=C(N/C(=C\c1ccc([N+](=O)[O-])cc1)C(=O)N1CCCCC1)c1ccccc1Br	0.02	-0.57
CCOC(=O)CC(C(=O)OCC)P(=O)(c1ccccc1)c1ccccc1 (stereo not drawn)	0.57	1.3
CCCCN(C)C1CCN(C(=S)Nc2cccc(OC)c2)CC1	1.01	0.21
CSc1nsc(N/N=C/c2ccc3c(c2)OCO3)c1C#N	0.84	-1.18
CCOC(=O)Cc1csc(NC(=S)NC(=O)c2cc(OC)cc(OC)c2)n1	1.73	-0.79
O=C(Cc1ccc(Cl)c(Cl)c1)Nc1ccccc1N1CCCC1	7.2*	2.75*
CCOC(=O)c1ccc(S(=O)(=O)NC2CC2)cc1	1.4	1.87
CCCCCCCN1C2=NCCN2c2ccccc21	0.65	-1
COc1ccc(-c2[nH]ncc2CN(C)CCCN2CCOCC2)cc1F	0.55	-0.71
CCc1cc(Br)ccc1NC(=O)C1CCCO1 (stereo not drawn)	0.76	-0.24
Cc1ccc(NCCCCO)cc1C	0.16	-0.73
COc1ccc(C2CCCN2C(=S)Nc2c(C)cccc2C)cc1OC (stereo not drawn)	0.26	0.84
Cc1ccc(C(=O)CC(C(=O)O)n2ccc(C)n2)cc1 (stereo not drawn)	1.03	-0.02
COc1ccc(C)cc1NS(=O)(=O)c1ccc2c(c1)CCN2C(C)=O	0.01	-1.03
CSCCC(N=C(NS(=O)(=O)c1ccccc1)c1ccccc1)C(=O)O (stereo not drawn)	1.91	0.82
Cc1cc(OCC(=O)O)c2cccc(C)c2n1	0.76	-0.22
COc1nnc(-c2ccccc2)s1	0.14	0.81
Cc1[nH]nc2c1C(c1ccc(O)cc1)C1=C(CC(C)(C)CC1=O)N2 (stereo not drawn)	0.19	-0.04
O=C(O)c1ccc(NC(=O)c2cccc(C(=O)Nc3ccc(C(=O)O)cc3)c2)cc1	0.08	1.8
COc1cc(NC(=S)N2CCC(C(N)=O)CC2)c(OC)cc1Cl	0.17	0.44
Cc1ccc(C)c(-n2ccnc2SCC(=O)O)c1	0.34	0
COc1ccc(C(=O)Nc2ccnn2C2CCN(C(=O)C3CCOC3)CC2)cc1 (stereo not drawn)	0.66	1.25
Cc1ccc(C(=O)COc2ccccc2C(=O)Nc2ccccc2)cc1	0.04	0.33
C#CCOCCOCCOCCNc1nc(N2CCN(C(=O)[C@H]([C@@H](C)CC)n3cc(CCCCN)nn3)CC2)nc(N2CCN(C(=O)[C@H](C)n3cc(CCC(=O)O)nn3)CC2)n1	1.08	-2.47
COc1ccccc1C(=O)NC(=O)CSc1nncn1C(C)C	0.26	-1.82
CC(C)(C)c1ccc(OCC(O)CN2CCOCC2)cc1 (stereo not drawn)	0.79	1.49
CCn1c2ccccc2c2cc(NC(=O)CNCC3CCCO3)ccc21 (stereo not drawn)	1.85	-1.51
O=C1c2ccccc2C(=O)N1CCCCN(C(=O)c1cc2ccccc2oc1=O)c1ccc(F)cc1F	1.92	-0.14
Cc1cc(=O)[nH]c(SCC(=O)Nc2ncc(S(=O)(=O)c3ccc([N+](=O)[O-])cc3)s2)n1	0.87	-0.31
O=C(CSc1nnnn1C1CCCC1)NCc1ccccc1	0.5	0.19
O=Cc1cn(-c2ccccc2)nc1-c1cc2ccccc2oc1=O	0.79	0.45
O=C(Cn1cnc2scc(-c3ccccc3)c2c1=O)N1CCOCC1	1.2	-0.08
CCOc1ccccc1NC(=O)CSc1nc(=O)n(CCN2CCOCC2)c2c1CCCC2	0.85	-0.8
COc1ccc(N2C(=O)NC(NS(=O)(=O)c3ccc(Cl)cc3)(C(F)(F)F)C2=O)cc1 (stereo not drawn)	0.12	-0.92
Cc1nn(-c2ccccc2)c2sc(C(=O)c3c(N)n(C)c(=O)n(C)c3=O)cc12	0.01	1.57
CCCc1nc2ccccc2c(=O)n1/N=C/c1ccc(O)cc1	2.27	-1.34
COc1ccccc1CC(=O)Nc1ccc(OC)c(OC)c1	0.54	-3.62
Cc1ccc(Cl)cc1N1C(=O)CC(C)(C)CC1=O	1.49	0.06
Oc1nc(Nc2ccc(F)cc2)sc1/C=C1\C=Nc2ccccc21	1.17	-1.51

Some of the entries so far, with each value named:
Cc1ccc(C(=O)COc2ccccc2C(=O)Nc2ccccc2)cc1
  KCNQ2 enhance = 0.04
  KCNQ2 enhance baseline = 0.33
CCCc1nc2ccccc2c(=O)n1/N=C/c1ccc(O)cc1
  KCNQ2 enhance = 2.27
  KCNQ2 enhance baseline = -1.34
COc1nnc(-c2ccccc2)s1
  KCNQ2 enhance = 0.14
  KCNQ2 enhance baseline = 0.81
CSCCC(N=C(NS(=O)(=O)c1ccccc1)c1ccccc1)C(=O)O (stereo not drawn)
  KCNQ2 enhance = 1.91
  KCNQ2 enhance baseline = 0.82

More structures:
smiles	KCNQ2 enhance	KCNQ2 enhance baseline
COc1ccc(CCNC(=O)Cn2nnc(C(=O)Nc3cc(C)ccc3C)c2N)cc1OC	0.28	0.67
CC1CCCN(Cc2c(O)ccc3c(=O)c(-c4ccc(Cl)cc4)coc23)C1 (stereo not drawn)	0.17	-0.53
CC(=O)N(Cc1cc(=O)[nH]c2ccccc12)c1ccccc1	1.97	0.85
O=C(COc1ccccc1Cl)NC(=S)Nc1ccccc1N1CCCC1	1.51	-0.15
O=C(Nc1ncccc1O)C1CCN(S(=O)(=O)c2ccc3ccccc3c2)CC1	0.06	0.12
O=C(O)CCc1ccc(-c2ccc(F)cc2)n1NC(=O)c1ccco1	0.8	0.54
CCn1c(-c2ccc3[nH]c(C)c(C)c3c2)n[nH]c1=S	0.05	1.02
CC(=O)C1C(=O)CC(C)(O)C(C(C)=O)C1c1ccc(N(C)C)cc1 (stereo not drawn)	2.15	-0.27
Cc1cc(C)n(CC(O)COc2ccc(Cl)cc2)n1 (stereo not drawn)	0.62	-3.11
CCc1ccc(OCC(=O)N(C)CCC#N)c(Br)c1	0.87	0.1
COC(=O)c1ccc(CSc2n[nH]c(C)n2)o1	0.09	1.48
CSc1nc2c(cc1C#N)C(=O)CC(C)(C)C2	0.79	0.01
Cc1nnc(N2C(=O)c3cccc4cccc(c34)C2=O)s1	1.14	-2.26
CN(Cc1ccon1)C(=O)CC1C(=O)NCCN1Cc1cccc(F)c1F (stereo not drawn)	0.24	0.86
CC(C)CC(=O)Nc1cc2c3c(c1)CCN3C(=O)CC2	0.35	0.94
O=C(CN(c1ccccc1)S(=O)(=O)c1ccc(Cl)cc1)Nc1cccnc1	0.5	0
Cc1c(=O)n(OCc2ccccn2)c2ccccc2[n+]1[O-]	0.41	-0.21
NC(=O)CN1C(=O)C2C3C=CC(C3)C2C1=O (stereo not drawn)	0.28	0.34
O=C(NC(=S)Nc1ccc(N2CCOCC2)cc1)c1cccc(Cl)c1Cl	0.05	0.01
NC(=O)CC(NC(=O)Cc1ccc(Cl)cc1)c1ccc(NC2CCCCC2)c([N+](=O)[O-])c1 (stereo not drawn)	1	-0.63
COc1ccccc1N1CC(C(=O)Nc2ccccc2N2CCCC2)CC1=O (stereo not drawn)	0.69	0.11
CCc1nc2ccccc2c(NC(=O)CN2CC(C)CC(C)C2)c1C (stereo not drawn)	1.29	-1.21
CN1CCN(C(=O)/C=C/c2ccc([N+](=O)[O-])cc2)CC1	0.09	-2.14
Cc1ccc(C(=O)NC2CCN(S(=O)(=O)c3ccc(C)cc3)CC2)cc1	1.04	1.47
CCOC(CNC(=O)C(=O)Nc1cc2c3c(c1)CCC(=O)N3CCC2)OCC	0.17	-2.57
COc1ccc(N=N/C(C(C)=O)=C(/C)O)cc1	1.02	-0.18
COc1ccccc1C(=O)COC(=O)CN1C(=O)C2CC=CCC2C1=O (stereo not drawn)	1.41	-0.54
COc1ccc(-c2nc(=S)c3c([nH]2)Oc2ccc(C)cc2C3)cc1O	1.7	0.48
O=c1c2ccccc2c(C=NCc2ccccn2)c(O)n1-c1ccccc1	0.06	-0.7
Cc1ccc(S(=O)(=O)N2CCN(c3ccc(C(=O)N4CCOCC4)cc3[N+](=O)[O-])CC2)cc1	0.25	-1.25
COc1ccc(-c2cc(CNC(=O)CN3CCN(C)CC3)on2)cc1	1	0.69
COc1ccc(Cl)cc1NC(=O)CSc1sc2c(O)cc(=O)[nH]c2c1C#N	1.02	0.17
COc1ccc(N2C(=O)CC2(C#N)c2ccc(OCc3ccccc3)cc2)cc1 (stereo not drawn)	1.2	-0.02
Cc1ccccc1OCCn1cc(C=O)c2ccccc21	0.01	0.14
O=C(Nc1nnc(/N=C/c2ccco2)s1)c1ccc(F)cc1	1.08	2.86
CC(C(=O)N1CCCCCC1)c1ccc([N+](=O)[O-])cc1 (stereo not drawn)	0.87	-0.91
Cc1cc(O)cc(O)c1C(=O)Cc1cnn(-c2ccccc2)c1	0.99	0.69
Cc1ccccc1-n1c(C)cc(/C=C2\NC(=O)NC2=O)c1C	2.59	0.11
O=C1CN(C(=O)C2CCCC2)CCN1	1.17	0.58
Cn1c(CC(=O)Nc2ccccc2)n[nH]c1=S	0.8	0.75
COc1ccc(C(=O)Nc2ccccc2C(=O)N2CCOCC2)cc1OC	1.23	-0.06
CC(C)CN(C(=O)c1cc(Cl)nc2ccccc12)c1c(N)n(Cc2ccccc2)c(=O)[nH]c1=O	2	1.53
CCN(CC)CCOc1ccc2nc(N(C)C)sc2c1	0.04	0.28
CCOC(=O)N1CCN(S(=O)(=O)c2ccc(OC)cc2)CC1	0.13	-0.01
Cc1cc(C)c(S(=O)(=O)Nc2nnc(CC(C)C)s2)c(C)c1	0.07	2.52
CN(C)/C=C/C(=O)c1ccc2noc(-c3cccc(F)c3)c2c1	0.04	0.69
Cc1cc2ccccc2c(=O)n1CC(=O)NCC1COc2ccccc2O1 (stereo not drawn)	0.69	-1.31
CC(CNC(=O)CN1C(=O)COc2ccc(S(=O)(=O)N3CCCCC3)cc21)c1ccccc1 (stereo not drawn)	4.71	-1.12
COc1ccccc1Nc1nc(Cl)nc(Nc2ccccc2OC)n1	1.6	-0.83
O=c1cc(N2CCCCCC2)[nH]c(=O)n1-c1ccc(Cl)cc1	2.48	1.94

Next part:
smiles	KCNQ2 enhance	KCNQ2 enhance baseline
S=c1[nH]cc(-c2ccccc2)[nH]1	0.76	2.06
Cc1c(-c2csc(N)n2)c2ccccc2n1C	0.33	0.01
O=C(NCc1ccco1)C1CC(=O)N(CCc2ccccc2)C1 (stereo not drawn)	0.61	1.08
O=C(c1ccc(C(F)(F)F)cc1)C1CCCN(C(=O)CCc2ccncc2)C1 (stereo not drawn)	2.02	-2.02
O=C(NC1CCCc2ccccc21)C1CCCN(S(=O)(=O)c2cnc[nH]2)C1 (stereo not drawn)	0.02	0.93
CN(CC(=O)NCCN1CCN(c2ccccc2)CC1)S(=O)(=O)c1ccc2c(c1)CCC(=O)N2	2.62	-1.28
O=C(CC1CCCCC1)N=C1SC2CS(=O)(=O)CC2N1c1ccccc1 (stereo not drawn)	0.49	1.42
O=C(CCCn1c(SCc2cc(=O)n3cc(Cl)ccc3n2)nc2ccccc2c1=O)NCC1CCCO1 (stereo not drawn)	0.97	0.55
CC[C@@]12C(=O)N(c3ccc(C)cc3)C(=O)N1[C@H](c1ccc(OC)cc1)[C@@H]1C(=O)N(C(C)(C)C)C(=O)[C@@H]12	0.3	-2.29
Cn1nc(C(=O)Nc2ccc(Br)cc2)cc1C(=O)Nc1ccc(Br)cc1	0.81	1.35
CCC(=O)Nc1cc(=O)[nH]c2ncnn12	3.1	0.94
COc1ccc(-c2nnn(CC(=O)N(Cc3ccccc3Cl)C(C(=O)NCC3CCCO3)c3ccco3)n2)cc1 (stereo not drawn)	1	0.16
COc1ccc(OC)c(NC(=O)c2cc(S(=O)(=O)N(C)C)ccc2N2CCCC2)c1	0.07	-0.65

Structures listed so far that contain a tert-butyl group, in the order listed:
smiles	KCNQ2 enhance	KCNQ2 enhance baseline
CC(C)(C)c1ccc(OCC(O)CN2CCOCC2)cc1 (stereo not drawn)	0.79	1.49
CC[C@@]12C(=O)N(c3ccc(C)cc3)C(=O)N1[C@H](c1ccc(OC)cc1)[C@@H]1C(=O)N(C(C)(C)C)C(=O)[C@@H]12	0.3	-2.29

Source: PubChem BioAssay
